HSV replic up: enhancers of HSV replication in host cells, fold increase, host cell viability. HSV replication augmentation in cells. maximum fold increase. hit rate 0.005% among 220,000;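 active means peak rise of 1.5-fold or more in the series; tested in PC3 cells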;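 further: first round at 10 µM; read as green reporter fluorescence; hits show the peak of a series up to 25 µM; 1 = signal of infected wells without compound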
HSV replic up primary fold: also measured in HSV replic up; calls as there; fold increase; compound at 10 µM; measured here: primary screen fold increase 10 uM; tested in PC3 cells;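 GFP signal in the first replicate; 1 = infected wells without compound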
The depositor's hits bear a star; i = inactive. This is a subset; count on the stated rates, not on these rows.

SMILES | HSV replic up | HSV replic up primary fold
COc1c(CC=C(C)C)cc(C2CC(=O)c3c(O)cc(O)cc3O2)c(CC=C(C)C)c1O (stereo unspecified) | i | 0.8
O=C(NCc1ccccn1)C1Nc2ccc(C(F)(F)F)cc2C2C=CCC12 (stereo unspecified) | i | 0.81
COc1ccc(-c2nnc3ccc(SCC(=O)N4CCCCCC4)nn23)cc1OC | i | 0.9
C=CCOC(=O)C1=C[C@@H](c2ccc(C(F)(F)F)cc2)C[C@@H](OCCCCO)O1 | i | 0.85
COCOc1ccc(C=O)cc1OCOC | i | 0.61
CC(=O)N[C@H](Cc1c[nH]c2ccccc12)C(=O)O | i | 0.94
NC(=O)C1CCN(c2ccc3c(c2)S(=O)(=O)c2ccccc2C3=O)CC1 | i | 1
Cn1c(=O)c2c(nc(/C=C/c3cccc(Cl)c3)n2C)n(C)c1=O | i | 0.82
Cc1nc(-c2ccccc2)sc1C1(C)CC(c2cccnc2)=NO1 (stereo unspecified) | i | 0.85
CC(C)=CCc1c(O)cc(O)c2c(=O)c3c(CC=C(C)C)c(O)ccc3oc12 | i | 0.64
N=C(N)SCCc1cccc(CCSC(=N)N)c1 | i | 0.85
CC1=C(C(=O)OCc2ccccc2)C(c2ccc3c(c2)OCO3)NC(=O)N1CCCC(=O)O (stereo unspecified) | i | 0.82
CCCNC(=O)C1(CC2CC(c3ccccc3)=NO2)CCN(C(=O)C2(C)CC2)CC1 (stereo unspecified) | i | 0.85
C[C@@H]1CC[C@]2(O[C@H](CCO)C[C@@H](O)[C@@H]2O)O1 | i | 1
CC(C)(C)NC(=O)[C@@H]1C[C@@H]2CCCC[C@@H]2CN1C[C@@H](O)[C@H](Cc1ccccc1)NC(=O)[C@H](CC(N)=O)NC(=O)c1ccc2ccccc2n1 | i | 0.9
Cc1ccc(Cn2c(CCNc3nc(-c4ccc(C)cc4)cs3)nc3cc(C(=O)NCCCO)ccc32)cc1 | i | 0.74
COc1ccc(-c2oc3ccc(N4CCOCC4)cc3c2C#CCO)cc1 | i | 0.68
COc1ccc(CN2[C@@H](CC(=O)O)c3cc(C(F)(F)F)ccc3S2(=O)=O)cc1 | i | 0.82
C=C1CCN([C@@H](Cc2ccccc2)C(=O)O)S(=O)(=O)c2ccccc21 | i | 0.85
Cc1cc(C)cc(SCc2noc(C(=O)NCCC(C)C)c2C(=O)NCCC(C)C)c1 | i | 1
C=C1CCN([C@@H](CC(C)C)C(=O)Nc2ccc(OC)cc2)S(=O)(=O)c2ccccc21 | i | 0.91
COc1ccc(-c2csc(NC(CO)c3nc4ccccc4n3CCCO)n2)cc1 (stereo unspecified) | i | 0.94
COC(=O)CCCCCN1C(=O)NC(C2CC2)C(C(=O)OCc2ccccc2)=C1C (stereo unspecified) | i | 0.93
NC(Cc1c[nH]c2ccccc12)C(=O)Nc1ccccc1 (stereo unspecified) | i | 0.91

Given tab-delimited: entries from further up
mol	HSV replic up	HSV replic up primary fold
COC(=O)CCCCCN1C(=O)NC(C2CC2)C(C(=O)OCc2ccccc2)=C1C (stereo unspecified)	i	0.93
NC(Cc1c[nH]c2ccccc12)C(=O)Nc1ccccc1 (stereo unspecified)	i	0.91

Continuation.
SMILES | HSV replic up | HSV replic up primary fold
CC(=O)N1[C@H](C)C=C[C@]1(Cc1ccccc1)C(=O)NCCN1CCOCC1 | i | 0.82
NC(=O)C1=C[C@@H](C2CCCCC2)C[C@@H](OCc2ccc(CO)cc2)O1 | i | 0.73
CCC(=O)OC1(C)C(=O)C=C2C=C(CCCCNC(=O)OC(C)(C)C)OC=C2C1=O (stereo unspecified) | i | 1.1
COc1ccc(C2=CC(=O)CC(c3ccc(F)cc3)C2)cn1 (stereo unspecified) | i | 0.93
CC[C@H]1CC2CN3CCc4c([nH]c5c([C@H]6C[C@H]7[C@H](CC)CN(C)[C@@H](Cc8c6[nH]c6ccccc86)[C@H]7C(=O)OC)c(OC)ccc45)C(C(=O)OC)(C2)C13 | i | 0.66
COc1ccc(-c2nc(C#N)c(N3CCN(c4cccc(Cl)c4)CC3)o2)cc1OC | i | 1.1
C#Cc1ccc([C@H]2C=C(C(=O)NCc3nc4ccccc4[nH]3)O[C@@H](OCC)[C@@H]2CCCO)cc1 | i | 0.8
CCOC(=O)C[C@H]1c2ccc(C(F)(F)F)cc2S(=O)(=O)N1C1CCCC1 | i | 0.96
C=CCSc1nnc2c(n1)-c1cccc3cccc-2c13 | i | 0.7
CCOC(=O)C[C@H]1c2ccccc2S(=O)(=O)N1Cc1cc(OC)c(OC)c(OC)c1 | i | 0.58
O=C(NCCc1nc(-c2ccccc2)no1)c1ccccc1 | i | 0.89
CCN1C(=O)N[C@@H](c2cccs2)C(C(=O)OC)=C1C | i | 0.74

Part of the list above, set out differently.
Order of values: HSV replic up | HSV replic up primary fold
- COc1ccc(CN2[C@@H](CC(=O)O)c3cc(C(F)(F)F)ccc3S2(=O)=O)cc1
→ i | 0.82
- C=C1CCN([C@@H](Cc2ccccc2)C(=O)O)S(=O)(=O)c2ccccc21
→ i | 0.85
- Cc1cc(C)cc(SCc2noc(C(=O)NCCC(C)C)c2C(=O)NCCC(C)C)c1
→ i | 1
- C=C1CCN([C@@H](CC(C)C)C(=O)Nc2ccc(OC)cc2)S(=O)(=O)c2ccccc21
→ i | 0.91
- COc1ccc(-c2csc(NC(CO)c3nc4ccccc4n3CCCO)n2)cc1 (stereo unspecified)
→ i | 0.94
- COC(=O)CCCCCN1C(=O)NC(C2CC2)C(C(=O)OCc2ccccc2)=C1C (stereo unspecified)
→ i | 0.93
- NC(Cc1c[nH]c2ccccc12)C(=O)Nc1ccccc1 (stereo unspecified)
→ i | 0.91
- CC(=O)N1[C@H](C)C=C[C@]1(Cc1ccccc1)C(=O)NCCN1CCOCC1
→ i | 0.82
- NC(=O)C1=C[C@@H](C2CCCCC2)C[C@@H](OCc2ccc(CO)cc2)O1
→ i | 0.73
- CCC(=O)OC1(C)C(=O)C=C2C=C(CCCCNC(=O)OC(C)(C)C)OC=C2C1=O (stereo unspecified)
→ i | 1.1
- COc1ccc(C2=CC(=O)CC(c3ccc(F)cc3)C2)cn1 (stereo unspecified)
→ i | 0.93
- CC[C@H]1CC2CN3CCc4c([nH]c5c([C@H]6C[C@H]7[C@H](CC)CN(C)[C@@H](Cc8c6[nH]c6ccccc86)[C@H]7C(=O)OC)c(OC)ccc45)C(C(=O)OC)(C2)C13
→ i | 0.66
- COc1ccc(-c2nc(C#N)c(N3CCN(c4cccc(Cl)c4)CC3)o2)cc1OC
→ i | 1.1
- C#Cc1ccc([C@H]2C=C(C(=O)NCc3nc4ccccc4[nH]3)O[C@@H](OCC)[C@@H]2CCCO)cc1
→ i | 0.8
- CCOC(=O)C[C@H]1c2ccc(C(F)(F)F)cc2S(=O)(=O)N1C1CCCC1
→ i | 0.96
- C=CCSc1nnc2c(n1)-c1cccc3cccc-2c13
→ i | 0.7
- CCOC(=O)C[C@H]1c2ccccc2S(=O)(=O)N1Cc1cc(OC)c(OC)c(OC)c1
→ i | 0.58
- O=C(NCCc1nc(-c2ccccc2)no1)c1ccccc1
→ i | 0.89
- CCN1C(=O)N[C@@H](c2cccs2)C(C(=O)OC)=C1C
→ i | 0.74

New compounds follow
SMILES | HSV replic up | HSV replic up primary fold
CC1(C)c2[nH]c3ccccc3c2C[C@H]2C(=O)N(Cc3ccc(F)cc3)C(=O)N21 | i | 0.82
CC1(c2nnc(-c3ccc(F)cc3)o2)CC(c2ccncc2)=NO1 (stereo unspecified) | i | 1.1
O=C1c2ccccc2S(=O)(=O)c2cc(N3CCN(C(=O)c4ccccc4)CC3)ccc21 | i | 1.1
COc1ccc(-c2c(-c3ccsc3)oc3ccc(N4CCOCC4)cc23)cn1 | i | 0.77
COc1ccc(C(=O)c2c(-c3ccc(OC)cc3)oc3ccc(-c4ccc(OC)nc4)cc23)cc1 | i | 0.79
O=c1[nH]c(Nc2ccccc2Cl)cc2ccccc12 | i | 0.91
O=C(NCc1ccc(F)cc1)c1ccc2c(c1)S(=O)(=O)c1ccccc1C2=O | i | 1.3
COC(=O)/C=C/c1cc(F)ccc1S(=O)(=O)NC(C)(C)C | i | 1.1
CC(C)(C)OC(=O)N1CCC2(CC1)Oc1ccc(Cl)cc1C(=O)C21CC(c2ccc(Cl)cc2)=NO1 (stereo unspecified) | i | 0.72
Cc1cccc(-c2nnc3n2N=C(c2ccc(Br)cc2)CS3)c1 | i | 0.74
O=C1c2ccccc2S(=O)(=O)c2cc(C(=O)N3CCN(c4ncccn4)CC3)ccc21 | i | 0.75
Cc1ccnc(NC(=O)CCC(=O)N(CC(=O)NC2CCCCC2)c2ccc3c(c2)OCO3)c1 | i | 1.1
COCCNC(=O)C1Nc2ccc(OC(F)(F)F)cc2C2C=CCC12 (stereo unspecified) | i | 0.9
CCCCN1CC[C@H]2C=CC[C@@H](C(=O)Nc3ccc(Cl)cc3Cl)[C@H]2C1=O | i | 0.99
OCCNc1nc(Nc2cc(Cl)ccc2OC2CCCC2)nc(N2CCCC2)n1 | i | 0.82
C=CCN1C=C2C(=O)C(C)(OC(=O)c3cnc4ccccc4n3)C(=O)C=C2C=C1/C=C/COC (stereo unspecified) | i | 0.96
COC(=O)CCC(=O)OC1(C)C(=O)C2=CN(CCc3ccccn3)C(c3ccc(OC)cc3)=CC2=C(Br)C1=O (stereo unspecified) | i | 0.91
O=C1CCC[C@H]2c3[nH]c4ccccc4c3CCN12 | i | 0.99
O=C1NC(=O)/C(=C/c2cccc(O)c2)N1 | i | 0.85
O=C(O)C(S)C(S)C(=O)O (stereo unspecified) | i | 0.94
O=c1[nH]c(Nc2ccccn2)cc2ccccc12 | i | 0.75
COC(=O)C1=C(C(=O)OC)[C@@H]2N(C)c3ccc(OC)cc3[C@@]23C[C@@H](C(=O)OC)N(C(=O)c2cc(C)oc2C)C3=N1 | i | 0.89
C/C(=C\C(=O)OCCCCCCCCC(=O)O)C[C@@H]1OC[C@H](C[C@@H]2O[C@H]2[C@@H](C)[C@H](C)O)[C@@H](O)[C@H]1O | i | 0.85
C[C@@H](NC(=O)C(=O)c1c[nH]c2ccccc12)c1ccccc1 | i | 1.1
c1ccc2oc(CCc3nc4ccccc4o3)nc2c1 | i | 0.94
C=CC[C@@H]1C=C(C)C[C@H](C)C[C@H](OC)[C@H]2O[C@@](O)(C(=O)C(=O)N3CCCC[C@H]3C(=O)O[C@H](/C(C)=C/[C@@H]3CC[C@@H](O)[C@H](OC)C3)[C@H](C)[C@@H](O)CC1=O)[C@H](C)C[C@@H]2OC | i | 0.84
CC1(c2nnc(Cc3ccccc3)o2)CC(c2ccncc2)=NO1 (stereo unspecified) | i | 0.83

Bioassay records: PubChem, SRMLSC
